Rce1 inhib – yeast Rce1p protease inhibitors, primary screen, biochemical, fluorescence, cell-free homogeneous. CAAX prenyl protease 2 (Saccharomyces cerevisiae (strain ATCC 204508 / S288c)), Q03530. yeast membranes, quenched prenylated peptide cleavage fluorescence. calls only. 290,000 compounds, 0.27% hits. AID 2563, 2010;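 active means fall in fluorescence gain of 50% or more versus controls, with final raw signal at or below 3038400; inconclusive means same 50% fall but final raw signal above 3038400; inactive means fall in fluorescence gain under 50%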;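 further: plate controls were neutral control wells for no effect and wells lacking membranes for full effect; tested at 10 µM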
Target sequence (Q03530 whole entry, looked up): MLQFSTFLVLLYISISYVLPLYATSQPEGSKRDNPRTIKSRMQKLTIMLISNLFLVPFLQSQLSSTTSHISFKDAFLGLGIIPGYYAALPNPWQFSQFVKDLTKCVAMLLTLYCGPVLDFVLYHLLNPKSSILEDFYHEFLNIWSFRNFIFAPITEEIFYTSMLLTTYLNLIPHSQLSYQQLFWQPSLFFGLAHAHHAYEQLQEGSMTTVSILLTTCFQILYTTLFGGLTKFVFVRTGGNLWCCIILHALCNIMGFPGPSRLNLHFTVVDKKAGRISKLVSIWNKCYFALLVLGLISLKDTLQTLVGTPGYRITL
eIF4H inh – human eIF4H binding inhibitors, primary screen, translation initiation inhibitor project, biochemical, uHTS, fluorescence polarization. Eukaryotic translation initiation factor 4H (Homo sapiens), Q15056. 290,000 compounds, 0.94% hits. inhibition, % at 35 µM. eIF4H fluorescence polarization binding assay;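 active means 50% or more with normal probe brightness, or confirmed in later tests; inconclusive means above 50% with abnormal brightness, or retests that disagree; inactive means below 50% or failed in later tests; about a fifth of its hits are not listed in these tables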;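 further: calls also rest on retests at 20 µM and on dose response follow-up; 0% = protein and probe with vehicle and 100% = probe without protein; strong numbers were not always called active; many hits fall short of the cut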
HIV Env fusion – inhibitors of HIV-1 Env-driven cell-cell fusion, primary screen, HeLa-JRFL effector, CEM21 target cells, luciferase | inhibition, % at 12.3 µM | 360,000 compounds, 1.1% hits | AID 651610, 2012;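 active means mean replicate inhibition score of at least 50 and every replicate individually at or above 50; inconclusive means only one of the two criteria met; inactive means mean below 50 and not all replicates reaching 50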;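 further: 0% = plate neutral controls and 100% = maraviroc near 300 nM; one replicate is shown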
PABP FP inh – PABP poly(A) RNA binding inhibitors, primary screen, biochemical, fluorescence polarization, uHTS; Polyadenylate-binding protein 1 (Homo sapiens), P11940; inhibition, % at 35 µM; 290,000 compounds, 1% hits;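 active means 50% or more with normal probe brightness, or confirmed in later tests; inconclusive means above 50% with abnormal brightness, or retests that disagree; inactive means below 50% or failed in later tests; about a fifth of its hits are not listed in these tables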;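 further: calls also rest on retests at 20 µM and on dose response follow-up; controls were probe without protein and protein plus probe with vehicle; some compounds called inactive have numbers as strong as hits; many hits fall short of the cut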
Target sequence (P11940 whole entry, looked up): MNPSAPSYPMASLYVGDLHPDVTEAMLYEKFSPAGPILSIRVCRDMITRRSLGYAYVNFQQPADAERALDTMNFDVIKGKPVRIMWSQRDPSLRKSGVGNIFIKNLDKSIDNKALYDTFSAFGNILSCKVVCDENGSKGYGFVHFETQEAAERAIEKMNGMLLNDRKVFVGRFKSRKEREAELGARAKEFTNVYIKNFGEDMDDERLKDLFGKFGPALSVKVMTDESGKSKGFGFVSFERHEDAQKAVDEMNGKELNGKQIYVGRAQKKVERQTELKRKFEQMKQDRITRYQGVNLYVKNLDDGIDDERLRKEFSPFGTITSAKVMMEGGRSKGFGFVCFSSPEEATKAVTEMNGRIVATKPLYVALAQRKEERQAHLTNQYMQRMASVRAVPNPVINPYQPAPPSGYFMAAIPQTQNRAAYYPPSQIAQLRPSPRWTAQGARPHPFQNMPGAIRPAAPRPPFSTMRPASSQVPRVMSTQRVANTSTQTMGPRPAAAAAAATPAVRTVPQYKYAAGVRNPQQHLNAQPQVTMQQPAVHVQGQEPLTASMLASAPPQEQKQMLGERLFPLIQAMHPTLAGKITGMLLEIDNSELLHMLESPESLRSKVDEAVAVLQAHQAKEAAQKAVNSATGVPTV
UUG fidelity – modulators of yeast start codon fidelity, primary screen, whole organism, S. cerevisiae, single point, plate reader | S. cerevisiae UUG-firefly luciferase reporter, luminescence/redox ratio | activity score, % at 18.7 µM | 350,000 compounds, 0.13% hits | AID 602363, 2012;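 active means replicate mean at a twofold rise or more, about +100% in these data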;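 further: firefly luciferase made from a UUG start codon reports start codon fidelity; reporter light over untreated wells divided by growth signal over untreated wells; some hits fall short of that in this replicate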
CSC inhib – cancer stem cell viability inhibitors, primary screen, luminescence. cancer stem cell-like cells viability. 300,000 compounds, 1.1% hits. inhibition, % at 7.5 µM;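 active means mean at 75% or more and at least half the replicates too; inconclusive means mean and replicates disagree; tested in HMLE shEcad cells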;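 further: 0% = median of negative and 100% = median of positive control wells; the first replicate is given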
MT1-MMP act inh – blockers of MT1-MMP proenzyme processing, primary screen, HT1080 RFP-PRO-GFP cells, GFP/RFP fluorescence. Matrix metalloproteinase-14 (Homo sapiens), P50281. GFP/RFP ratio fluorescence, overnight; percent of plate control window, DMSO zero. GFP/RFP ratio change, % at 20 µM. 360,000 compounds, 0.061% hits. AID 651647, 2012;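 active means GFP/RFP ratio change of at least 30% with cell ATP level not reduced by more than half and red fluorescence within 50% of control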; further: strong numbers were not always called active
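Material – HT1080 RFP-PRO-GFP cells · Control set – DMSO wells and RFP-L50D-GFP cells · Incubation – overnight cell settling, then overnight compound exposure, 37 °C, 5% CO2 · Compound dosing – single-point 20 µM compound, 1% DMSO · Read-out – GFP/RFP fluorescence ratio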
MT1-MMP act inh RFP – second read-out of MT1-MMP act inh, no call of its own (marks repeat the call); RFP signal change, %; measured here: RFP expression control read;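 0 = vehicle wells; hits needed this value within 50% of zero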
Numbers without * were called inactive; i = inactive; ? = inconclusive; . = no result given; & = joins results of further samples.

SMILES	Rce1 inhib	eIF4H inh	HIV Env fusion	PABP FP inh	UUG fidelity	CSC inhib	MT1-MMP act inh	MT1-MMP act inh RFP
O=C(/C=C/c1cccc(F)c1)N1CCN(c2ncccn2)CC1	i	11	19	-5	6	-4	1	6
CCn1c(SCC(=O)N2CCCC2=O)nnc1-c1cccs1	.	.	.	.	-17	-3	1	2
CN1CCN(Cc2nc3ccccc3c(=O)n2Cc2nc(-c3ccc([N+](=O)[O-])cc3)cs2)CC1	i	-15	-2	-1	.	21	-10	-11
N#C/C(=C\c1ccccc1C(F)(F)F)C(=O)Nc1ccccc1F	i	2	3	1	-19	-3	4	7
CCCCC(c1nnnn1CCOC)N1CCN(C)CC1 (stereo unspecified)	i	3	-2	-4	-11	26	-4	-3
C/C(=N/Nc1ncc(Br)cn1)c1ccc(Br)cc1	i	4	5	1	-15	-6	1	-3
C=CCn1cnc2sc(C(=O)Nc3ccccc3OC)c(C)c2c1=O	i	-2	-8	-2	-13	-9	-1	0
Cc1[nH]c2ccccc2c1-c1nc2ccccc2[nH]1	i	-6	0	0	0	-9	5	1
O=[N+]([O-])c1ccc(N2CCN(C(=S)Nc3ccccc3)CC2)cc1	i	1	-19	14	.	-1	8	3
Cc1c(C#N)c(N)nc2c3c(sc12)NC(=O)CC3c1ccc(F)cc1 (stereo unspecified)	i	-5	-31	-1	-9	-11	1	-7
CCOC(=O)Cn1c(-c2ccccc2)nc2ccccc2c1=O	i	-1	30	2	-10	-1	-5	-2
CC(=O)c1ccc(NC(=O)Cn2nc(C)cc2C)cc1	.	-3	-18	-4	-17	-15	2	0
COc1ccc2c(c1)c(CC(=O)Nc1ccccc1OC)c(C)n2C(=O)c1ccc(Cl)cc1	i	1	16	-4	.	4	-5	-15
CCC1C(=O)N=C(SCC(=O)Nc2cccc3ccccc23)NC1=O (stereo unspecified)	i	8	-12	-2	5	-17	3	5
CCCCN(C=O)c1c(CC)nc2ccc(C(=O)Nc3cc(-c4ccccc4)ccc3OC)cn12	.	.	18	.	-11	.	-8	-15
Cc1ccc(-n2c(O)c(/C=N/n3cnnc3)c3ccccc3c2=O)cc1	i	-4&6	-52	8&-8	-2&-19	-1&3	-2&-1	1&3
CC(=O)Nc1ccc(SCc2csc(C)n2)cc1	.	2	2	11	-7	-10	0	3
CC(C)Nc1nnc(Sc2ccc(Cl)cc2[N+](=O)[O-])s1	i	11	.	1	.	-1	1	2
COc1ccc2cc(C(=O)C3CCCN(C(=O)CCc4ccccn4)C3)ccc2c1 (stereo unspecified)	i	-4	-13	-2	.	-8	2	-3
Cc1ccccc1C(=O)NC(=S)Nc1ccc2[nH]c(=O)[nH]c2c1	i	-3	3	-3	-14	12	-3	-3
CSc1ccccc1OCc1cc(C(=O)N(C)CCn2nc(C)cc2C)no1	i	-7	-3	4	-30	-16	1	0
CC(=O)c1ccc(-n2c(CCC(=O)O)ccc2-c2ccc(Cl)cc2)cc1	i	5	23	-5	6	-7	-2	-1
CCCCN(CC)S(=O)(=O)c1ccc2c(c1)n(C)c(=O)c(=O)n2C	i	-6	0	-5	-12	-6	-2	-2
COc1ccc(-c2cc(C(F)(F)F)nc(SCC(=O)Nc3ccc4c(c3)OCO4)n2)cc1OC	i	-5	.	-18	-6	6	5	5
O=C(NCCCN1CCOCC1)c1cc2c([nH]c3ccccc32)c(-c2cccc(Br)c2)n1	i	-1	.	-11	-15	14	5	-4

Following part
SMILES	Rce1 inhib	eIF4H inh	HIV Env fusion	PABP FP inh	UUG fidelity	CSC inhib	MT1-MMP act inh	MT1-MMP act inh RFP
CCCCCn1c(N2CCCC2)nc2c1c(=O)n(C)c(=O)n2C	i	-3	9	-4	8	-18	-2	-7
C1CCc2nnc(-c3nnc4n3CCCCC4)n2CC1	i	-2	.	2	-21	-12	-4	3
CCOC(=O)C1=C(N)n2c(s/c(=C\c3cccs3)c2=O)=C(C(=O)OCC)C1c1cccs1 (stereo unspecified)	i	0	.	4	-10	56	1	-11
CC(=O)C1=C(O)C(=O)N(c2ccc(Br)cn2)C1c1ccc(Br)cc1 (stereo unspecified)	i	6	-469	1	-14	-4	1	-7
S=c1[nH]nc(-c2cccs2)n1/N=C/c1cn(-c2ccccc2)nc1-c1ccccc1	i	9	-17	4	.	25	-1	-4
CCCOc1ccc(C(=O)N(Cc2cccs2)C2CCS(=O)(=O)C2)cc1 (stereo unspecified)	i	-7	4	5	3	10	-2	-3
COc1ccc(/C=C2\SC(=S)N(NC(=O)c3csc4c3CCCC4)C2=O)cc1	i	-5	.	-6	-3	41	1	-1
Cc1nn(S(=O)(=O)c2ccc(C(C)C)cc2)c(C)c1S(=O)(=O)N1CCOCC1	i	4	13	9	-2	-2	7	7
COc1ccc(-c2nc(C(=O)O)cs2)cc1OC	i	4	9	2	.	-7	0	3
O=C(c1ccc(Cl)cc1)N1CCCCC(Cl)C1=O (stereo unspecified)	i	-6	-14	16	.	-12	2	5
O=C(O)C(C(=O)O)=C1C2CC3CC(C2)CC1C3	i	-7	-14	-9	.	-14	1	5
Cc1ccc(C(=O)SC2=NCCS2)cc1	i	9	.	-15	-36	8	-1	1
Cc1cc(C)nc(/N=C2\NC(=O)CC3C(=O)NCCN23)n1 (stereo unspecified)	i	-8	-96	2	-21	2	0	7
C/C(=N/N1CCN(c2ccccc2)CC1)c1cccc([N+](=O)[O-])c1	i	13	-10	16	.	-14	-1	-1
COc1ccc(C)cc1NC(=O)NCCC1=CCCCC1	i	0	.	11	9	-7	3	-4
CN(C)CCNC(=O)c1cccc(-c2cnc3c(NC=O)cc(-c4cccs4)cn23)c1	.	.	-14	.	-18	.	1	3
COc1cc(C2C3CN(C)CC=C3C(C#N)=C(N)C2(C#N)C#N)ccc1OC(C)C (stereo unspecified)	i	?	-60	?	.	-9	-58	6
CCCCN(CCCC)CCNC(=O)CNC(=O)c1cccs1	i	-9	5	-11	-9	-8	-2	3
NC(=O)Nc1ccc(C(=O)OCC(=O)N(Cc2ccccc2)C2CCS(=O)(=O)C2)cc1 (stereo unspecified)	i	-5	7	-2	9	-11	1	10
O=C(CSc1n[nH]c(=O)[nH]c1=O)Nc1ccccc1C(=O)c1ccccc1	i	0	5	-8	-4	11	7	3
O=C(Nc1ccc(F)c(Cl)c1)c1cc(C2CCCCN2C(=O)C2CC2)on1 (stereo unspecified)	.	.	4	.	-16	.	1	-11
Cc1cc(C)c(NC(=O)CSc2nc3ncc(Cl)cc3[nH]2)c(C)c1	i	-5	-1	3	-28	-2	0	-6
CC1=C(C#N)C(c2ccc3ncccc3c2)C(C#N)=C(C)N1	i	-9	.	-3	.	-8	1	2
C=CCn1c(SCC(=O)Nc2ccccc2F)nc2ccccc2c1=O	i	-3	18	7	-12	0	-1	-5
CC(=O)c1cccc(NC(=O)N2C3CCC2CC(NC(=O)C2CC2)C3)c1 (stereo unspecified)	i	-7	11	-1	.	-2	-3	2

(next part)
SMILES	Rce1 inhib	eIF4H inh	HIV Env fusion	PABP FP inh	UUG fidelity	CSC inhib	MT1-MMP act inh	MT1-MMP act inh RFP
COC(=O)c1ccccc1C(=O)N1CCOCCOCCOCC1	i	4	6	10	.	-17	0	1
O=C(CNc1cc(S(=O)(=O)N2CCOCC2)ccc1N1CCCC1)Nc1ccc(Cl)cc1	.	.	9	.	-6	.	-1	2
Cc1ccccc1C(=O)Nc1nnc(SCC(=O)NC2CC2)s1	i	-8	-26	2	-16	17	3	3
Cc1ccc(Sc2ncccc2C(=O)NCC(c2ccc(F)cc2)N2CCOCC2)cc1C (stereo unspecified)	i	.	1	.	-17	-2	1	2
O=C(NCc1ccccn1)C1CCCN(S(=O)(=O)c2ccccc2)C1 (stereo unspecified)	i	-6	.	-2	-10	-1	2	8
CCOC(=O)CCCNC(=O)CN1C(=O)NC2(CCCCCC2)C1=O	i	-9	-25	0	-11	7	-2	6
C[C@H](NC(=O)c1ccc2c(c1)OCO2)c1nnc2ccccn12	i	5	.	6	-19	-24	-5	1
CS(=O)(=O)Nc1ccc(C(=O)Nc2ccccc2C(=O)NCc2ccco2)cc1	i	-7	0	1	-15	-2	-2	-3
CC1(C)CC(=O)C(C2=NC3(CCCCCC3)Cc3ccccc32)=C(O)C1	i	-5	-40	6	.	10	0	-2
O=C(NC1CC1)c1ccc(N2CCCCC2)c([N+](=O)[O-])c1	i	-2	-1	-2	5	0	5	-2
Cc1ccc(F)cc1NC(=O)CSCc1c(C)noc1C	.	.	.	.	-10	-14	1	3
C#CCOCCOCCOCCNc1nc(N2CCN(C(=O)[C@H](CO)n3cc([C@@H](N)C(C)C)nn3)CC2)nc(N2CCN(C(=O)[C@H](CCC(=O)O)n3cc([C@@H](N)CCCCN)nn3)CC2)n1	.	.	-4	.	-9	3	3	7
COc1ccc(CNC(=O)C(C)NCc2ccccc2Cl)cc1 (stereo unspecified)	i	-2	9	20	-8	.	1	1
Cc1ccccc1C1N(c2nccs2)C(=O)C2CCCN21 (stereo unspecified)	i	8	1	-6	.	-3	-5	-1

Of the compounds above, these have two or more sulfur atoms:
SMILES	Rce1 inhib	eIF4H inh	HIV Env fusion	PABP FP inh	UUG fidelity	CSC inhib	MT1-MMP act inh	MT1-MMP act inh RFP
CCn1c(SCC(=O)N2CCCC2=O)nnc1-c1cccs1	.	.	.	.	-17	-3	1	2
CC(=O)Nc1ccc(SCc2csc(C)n2)cc1	.	2	2	11	-7	-10	0	3
CC(C)Nc1nnc(Sc2ccc(Cl)cc2[N+](=O)[O-])s1	i	11	.	1	.	-1	1	2
CCOC(=O)C1=C(N)n2c(s/c(=C\c3cccs3)c2=O)=C(C(=O)OCC)C1c1cccs1 (stereo unspecified)	i	0	.	4	-10	56	1	-11
S=c1[nH]nc(-c2cccs2)n1/N=C/c1cn(-c2ccccc2)nc1-c1ccccc1	i	9	-17	4	.	25	-1	-4
CCCOc1ccc(C(=O)N(Cc2cccs2)C2CCS(=O)(=O)C2)cc1 (stereo unspecified)	i	-7	4	5	3	10	-2	-3
COc1ccc(/C=C2\SC(=S)N(NC(=O)c3csc4c3CCCC4)C2=O)cc1	i	-5	.	-6	-3	41	1	-1
Cc1nn(S(=O)(=O)c2ccc(C(C)C)cc2)c(C)c1S(=O)(=O)N1CCOCC1	i	4	13	9	-2	-2	7	7
Cc1ccc(C(=O)SC2=NCCS2)cc1	i	9	.	-15	-36	8	-1	1
Cc1ccccc1C(=O)Nc1nnc(SCC(=O)NC2CC2)s1	i	-8	-26	2	-16	17	3	3
